# Screening data as filed in PubChem BioAssay.
# MgrA-DNA mod – S. aureus MgrA activity modulators, primary screen, biochemical, S. aureus Newman, fluorescence polarization. inhibition, %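 (about 10 µg/mL by stock and volumes)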. MgrA-DNA binding. hit rate 0.13% among 84,000;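 active means above 50% in either of two replicates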;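 further: 0% = protein plus DNA without compound and 100% = DNA alone without protein; higher means less MgrA bound to DNA so lower polarization; one replicate is shown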
# Sa helicase inh – inhibitors of S. aureus replicative helicase, primary screen, biochemical, fluorescence unwinding readout; replicative DNA helicase (DnaC/DnaB), Staphylococcus aureus; purified S. aureus helicase, fluorescence unwinding assay; about half of the hits fall short of the stated cut; inhibition, %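 (tested at about 80 µM)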; hit rate 0.05% among 120,000; AID 485395, 2010;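 active means both duplicates at 50% or more, or one of them with a favoured structure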;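 further: 0% = mean of negative control wells and 100% = mean of positive control wells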
# * marks the source's active call; other numbers are inactive results; · = not tested or not shown; & = joins results of further samples. An excerpt; count on the stated rates, not on these rows.
MgrA-DNA mod	Sa helicase inh	SMILES
-4.8	-11.0	O=C(CSc1ccc2ccccc2c1)N1CCN(C(=O)c2ccco2)CC1
0.4	·	O=C(NC(=O)c1ccc(-c2ccc(Cl)cc2)s1)c1ccccc1
-0.3	11.0	CC(C)CC(Nc1ncnc2c1oc1ccccc12)C(=O)O (stereo not drawn)
0.1	3.0	CC(C)(C)c1c[n+](-c2ccccc2)c2n1CCS2
·	-20.0	CCOC(=O)c1cccc(NC(=O)c2c(C)nn(-c3ccccc3)c2-n2cccc2)c1
·	5.0	Cc1ccccc1Cn1c(CCNC(=O)C(C)(C)C)nc2ccccc21
·	10.0	CCOc1ccc(-n2ccnc(SCC(N)=O)c2=O)cc1
-1.2	12.0	Cc1c(C#N)c(-c2ccccc2)nc2ccccc12
0.8&-0.3	·	Clc1ccccc1C(c1ccccc1)(c1ccccc1)n1ccnc1
·	1.0	CCn1c(CSc2nc(C)cc(=O)[nH]2)nc2ccccc21
·	12.0	Cc1n[nH]c(=O)n1Cn1c(C)n[nH]c1=O
·	-10.0	N#CCCn1c(SCc2cc3ccccc3nc2Cl)nc2ccccc21
-0.3	5.0	CC1CCC2(CC1)NC(=S)N(c1ccccc1)N2 (stereo not drawn)
·	-14.0	CCOc1ccc(NC2CCN(C(C)=O)CC2)cc1
13.5	-17.0	Nc1c(C(=O)N2CCc3ccccc32)sc2nc(C(F)(F)F)c3c(c12)CCCC3
-3.8	10.0	Cc1ccccc1OC(C)C(=O)NC1CCCC1 (stereo not drawn)
·	12.0	CC1Cc2ccccc2N1C(=O)CCS(=O)(=O)c1cccc2nonc12 (stereo not drawn)
·	9.0	COc1ccc(-c2nc3ccc(C)cc3[nH]2)cc1OC
1.9	·	FC(F)(F)c1cccc(-c2ccnc3cc(-c4nc(-c5ccc(Cl)cc5)cs4)nn23)c1
·	-14.0	Cc1nc(SCC(=O)N2CCCC2c2ccc3c(c2)OCCCO3)c(C#N)c(C)c1C (stereo not drawn)
·	8.0	O=C(Cn1ncc2c1-c1ccccc1OC2)Nc1cccnc1
-0.8	·	COc1ccc(OCC(O)CNC(=O)c2cc(C(C)(C)C)nn2C)cc1 (stereo not drawn)
·	-14.0	COc1ccc(C(=O)N2CC(=O)Nc3ccccc32)cc1S(=O)(=O)NCc1ccncc1
-1.1	-5.0	O=C(Nc1ccccc1)c1ccc2c(c1)C(=O)N(CCC1=CCCCC1)C2=O
·	-12.0	O=C(CN(Cc1ccco1)C(=O)Cc1ccccc1F)Nc1ccccc1C(F)(F)F
·	2.0	Cc1cc(C)n(-c2ncc(S(=O)(=O)C(C)(C)C)c(N)n2)n1
-1.1	·	O=C(/C=C/c1ccccc1)Nc1ccc(N2CCN(c3ccc(C(F)(F)F)cn3)CC2)nc1
-2.1	·	O=C(COc1ccccc1)Nc1ccccc1C(=O)O
·	-16.0	O=C(COc1ccc(Cl)cc1)n1nnc2ccccc21
0.7	15.0	CCC(CC)c1nnc(N)s1
1.2	·	COc1cc([N+](=O)[O-])ccc1-c1ccc(/C=C2/C(=O)NC(=O)N(c3ccccc3)C2=O)o1
·	0.0	N/C(=N\O)C(c1ccccc1)c1ccccn1 (stereo not drawn)
·	4.0	O=C1c2ccccc2C(=O)N1c1ccc2[nH]c(=S)sc2c1
-0.8	-2.0	Cn1c(C(O)c2ccc3c(c2)OCO3)nc2ccccc21 (stereo not drawn)
·	-4.0	N#Cc1ccsc1NC(=O)CSc1nnc(NC2CC2)s1
1.9	·	CC(C)(C)c1ccc(-c2ncon2)cc1Cn1nnc(-c2cccc(C(F)(F)F)c2)n1
2.1	·	CCC(=O)N(C1=NCCC(=O)S1)c1ccc(C(C)(C)C)cc1
0.1	·	Cc1ccc(S(=O)(=O)CC(C)(O)CS(=O)(=O)c2ccc(C)cc2)cc1
-3.4	·	Cc1ccc(NC(=O)CC(C)CC(=O)O)cc1 (stereo not drawn)
·	14.0	CC(C)CNC(=S)NCc1ccco1
0.1	1.0	Cc1[nH]c2ccccc2c1C(=O)CN(C)C1CCCCC1
·	8.0	O=C(OCc1cc(=O)oc2cc3c(cc12)CCC3)c1ccc(-n2cnnn2)cc1
-6.4	·	O=C(O)COCC(=O)Nc1ccc(C(F)(F)F)cn1
·	-4.0	Cc1ccc(-n2nc(C)c3c(C)cc(=O)[nH]c32)cc1
·	-5.0	CCOC(=O)c1c(-c2cccs2)csc1NC(=O)CSc1ccccn1
-0.1	7.0	O=C(NCCc1ccccc1)c1cnn(-c2ccccc2)c1-n1cccc1
-0.5	·	COc1ccc(S(=O)(=O)/N=C2/NC(=O)/C(=C\c3ccc(OC)c(OC)c3)S2)cc1
·	11.0	Cc1[nH]n2c(=O)c3c(nc2c1-c1ccc(Cl)cc1)CCC3
-1.2	2.0	C/C(=N/n1cnnc1)c1ccccc1
-0.6	·	Cc1cc(NC(=O)c2ccccc2)no1

# More compounds.
MgrA-DNA mod	Sa helicase inh	SMILES
-2.8	·	CCC1C2=C(CCCC2=O)NC2=C1C(=O)CCC2
-1.2	-2.0	N#Cc1c[nH]n2c(=O)cc(Cc3ccccc3)nc12
·	-2.0	CCC1CCCCN1C(=O)CSc1nc2c(c(=O)n1C)SC(C)C2 (stereo not drawn)
-2.0	9.0	Cc1cccc(NS(=O)(=O)c2ccc3c(c2)oc(=O)n3C)c1
-1.8	·	COc1ccccc1Nc1ncnc(-n2cccc2)n1
17.2	2.0	Nc1c(Cl)ncnc1NCCO
·	-22.0	N#Cc1c(/N=C/c2ccccc2O)oc(-c2ccco2)c1-c1ccco1
-0.3	·	CCCCC#Cc1cncc(C(=O)NN)c1
·	-14.0	CSc1ncc(Cl)c(C(=O)Nc2c(C(=O)Nc3ccc(C)cc3)oc3ccccc23)n1
·	2.0	CCOC(=O)C1CCN(C=Nc2cc(C)on2)CC1
·	-7.0	CCn1c(O)c(C=Nc2ccc(C)cc2)c(=O)n(CC)c1=S
-0.2	·	O=C(Oc1c(-c2ccccc2)c(=O)n2c3c(cccc13)CC2)c1ccccc1
·	-22.0	Cc1cccc(C(=O)N2CCCN(C(=O)c3cccc(C)c3)CC2)c1
-1.1	-1.0	S=C(Nc1cccnc1)N1CCc2ccccc21
·	-8.0	Cc1ccccc1C(OCC(O)CN(C)C1CCN(C)CC1)c1ccccc1 (stereo not drawn)
-1.3	·	Cc1cc(C)nc(NS(=O)(=O)c2ccc(NC(=O)NC(=O)N(C)S(C)(=O)=O)cc2)n1
-0.9	·	Cc1ccccc1C1C2=C(CCCC2=O)OC2=C1C(=O)CCC2
·	-3.0	CCc1cccc(NC(=O)Cn2cc(S(=O)(=O)N3CCCC3)c(S(=O)(=O)N3CCCC3)c2)c1
·	6.0	CN(C(=O)Cn1c(SCc2cccc(F)c2)nc2ccncc21)c1ccccc1
-3.8	18.0	CCN1C(=O)C2C(c3ccc(O)cc3)NC(CO)(C(=O)OC)C2C1=O (stereo not drawn)
-3.5	3.0	O=C(NC(Nc1ccccc1C(F)(F)F)C(=O)c1ccccc1)c1ccco1 (stereo not drawn)
·	-17.0	Nc1ccccc1-c1nnc(SCC(=O)c2ccccc2)o1
-2.2	9.0	O=C(O)CC1OC(=O)c2ccccc21 (stereo not drawn)
·	-15.0	Cc1nc(COc2ccc(C(C)(C)C)cc2)[nH]c(=O)c1Cl
-1.1	0.0	O=C(NCCO)c1nnc(-c2cccc(Cl)c2)o1
6.2	9.0	O=C1CC(CSc2ccc(Cl)cc2)=NN1c1nc2ccccc2s1
2.8	·	Cc1ccc2oc(=S)[nH]c2c1
-1.9	4.0	Cn1c(=O)c2c(nc(CN3CCN(C(=O)c4ccco4)CC3)n2Cc2ccccc2F)n(C)c1=O
-0.5	-2.0	CC1CC(=O)C2=C(OC(N)=C(C#N)C2c2ccccc2C(F)(F)F)O1 (stereo not drawn)
·	3.0	CCN(C(=O)CN1c2cccc3cccc(c23)S1(=O)=O)c1ccccc1

# Molecules from the list above containing four or more nitrogen atoms (22):
MgrA-DNA mod	Sa helicase inh	SMILES
·	-20.0	CCOC(=O)c1cccc(NC(=O)c2c(C)nn(-c3ccccc3)c2-n2cccc2)c1
·	1.0	CCn1c(CSc2nc(C)cc(=O)[nH]2)nc2ccccc21
·	12.0	Cc1n[nH]c(=O)n1Cn1c(C)n[nH]c1=O
·	-10.0	N#CCCn1c(SCc2cc3ccccc3nc2Cl)nc2ccccc21
1.9	·	FC(F)(F)c1cccc(-c2ccnc3cc(-c4nc(-c5ccc(Cl)cc5)cs4)nn23)c1
·	8.0	O=C(Cn1ncc2c1-c1ccccc1OC2)Nc1cccnc1
·	-14.0	COc1ccc(C(=O)N2CC(=O)Nc3ccccc32)cc1S(=O)(=O)NCc1ccncc1
·	2.0	Cc1cc(C)n(-c2ncc(S(=O)(=O)C(C)(C)C)c(N)n2)n1
-1.1	·	O=C(/C=C/c1ccccc1)Nc1ccc(N2CCN(c3ccc(C(F)(F)F)cn3)CC2)nc1
·	-4.0	N#Cc1ccsc1NC(=O)CSc1nnc(NC2CC2)s1
1.9	·	CC(C)(C)c1ccc(-c2ncon2)cc1Cn1nnc(-c2cccc(C(F)(F)F)c2)n1
·	8.0	O=C(OCc1cc(=O)oc2cc3c(cc12)CCC3)c1ccc(-n2cnnn2)cc1
-0.1	7.0	O=C(NCCc1ccccc1)c1cnn(-c2ccccc2)c1-n1cccc1
-1.2	2.0	C/C(=N/n1cnnc1)c1ccccc1
-1.2	-2.0	N#Cc1c[nH]n2c(=O)cc(Cc3ccccc3)nc12
-1.8	·	COc1ccccc1Nc1ncnc(-n2cccc2)n1
17.2	2.0	Nc1c(Cl)ncnc1NCCO
·	-14.0	CSc1ncc(Cl)c(C(=O)Nc2c(C(=O)Nc3ccc(C)cc3)oc3ccccc23)n1
-1.3	·	Cc1cc(C)nc(NS(=O)(=O)c2ccc(NC(=O)NC(=O)N(C)S(C)(=O)=O)cc2)n1
·	-3.0	CCc1cccc(NC(=O)Cn2cc(S(=O)(=O)N3CCCC3)c(S(=O)(=O)N3CCCC3)c2)c1
·	6.0	CN(C(=O)Cn1c(SCc2cccc(F)c2)nc2ccncc21)c1ccccc1
-1.9	4.0	Cn1c(=O)c2c(nc(CN3CCN(C(=O)c4ccco4)CC3)n2Cc2ccccc2F)n(C)c1=O
